Mtb hypoxia rep = Mtb hypoxia fluorescent reporter inhibition; M. tuberculosis hypoxia-regulated fluorescent reporter, fluorescence; fluorescence inhibition, % (concentration not given with the values); 0.1% of 300,000 active; AID 1159583;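 active means 35 to 45% if threefold the growth effect, above 45% if 1.5-fold the growth effect; inactive means the rest, general growth blockers included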;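 further: wells of about 50 µL received 100 nL stock; 0% = vehicle wells and 100% = reference inhibitor wells; whole bacteria with a GFP reporter of the hypoxia response; strong numbers were not always called active; many hits fall short of the cut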
RN4220 kill = S. aureus RN4220 growth inhibition; 0.33% of 330,000 active; OD600, 16 h; inhibition, % (test concentration not listed);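 active means z-score of -3 or lower and OD600 up to 0.18 on both plates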;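 further: plate controls were untreated cells for no effect and reference antibiotic for full effect; stock transfer was 100 nL into about 80 µL; one replicate is shown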
Autofluor counter = counter-screen for toxin protease inhibitors: compound fluorescence | AID 624483 | compound autofluorescence counterscreen, microsphere flow cytometry; stronger effect = higher value | 3.1% of 360,000 active | fluorescence intensity (test concentration not listed);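 active means at least 3 SD above the mean of all compounds, about 16000 in these data; inconclusive means too few beads counted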;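 further: 100 nL of 1 mM stock went into each well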
Sa ugtP lethal = growth inhibition of S. aureus ugtP deletion strain | S. aureus RN4220 ugtP deletion, OD600 growth, 16 h; some inactives read as strong as hits | growth inhibition, % (concentration not given with the values) | 0.54% of 330,000 active | AID 1259309;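 active means z-score under -3 and OD600 up to 0.15 on both plates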;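 further: plate controls were untreated wells for no effect and antibiotic for full effect; wells of about 80 µL received 100 nL stock; the first replicate is given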
BJeLR viability = kills HRASV12-expressing BJeLR cells; BJeLR (HRASV12) viability, CellTiter-Glo ATP luminescence, 48 h; reference of the scale not given here; inhibition, % (test concentration not listed); 0.17% of 300,000 active; AID 1554;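 active means replicate mean above 50%; inconclusive means above 50% but judged a plate artefact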;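 further: 50 nL library stock added to about 25 µL; numbers are from one replicate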
PrP UTR inh = suppresses PrP 5' UTR mRNA reporter expression; cell-based PrP 5' UTR mRNA reporter, plate reader; inhibition, % (concentration not given with the values); 0.35% of 340,000 active; AID 488862;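 active means every replicate at 50% or more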;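 further: 0 = median of the neutral control wells; tested in H4 reporter cells; numbers are from one replicate; inactives centre near -14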
Mtb hypoxia rep growth = also measured in Mtb hypoxia rep; calls as there; growth inhibition, %; measured here: M. tuberculosis growth (absorbance);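 0% = vehicle and 100% = reference antibiotic; read after six days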
* marks the source's active call; other numbers are inactive results; ? = inconclusive; . = not tested or not shown.

Start of the listing, in advance:
cpd	Molecule	Mtb hypoxia rep	Mtb hypoxia rep growth	RN4220 kill	Autofluor counter
1	CS/C(N)=N/N=C/c1ccc2c(c1)OCO2	.	.	.	5798
2	CCC(Oc1cc(Cl)ccc1Cl)C(=O)NNC(=O)CCC(=O)O (configuration not stated)	10.3	-1.6	-1.3	2944

cpd	Sa ugtP lethal	BJeLR viability	PrP UTR inh
1	.	-12.2	-70.1
2	6.5	-7.3	-10.2

The listing, repeating the preview:
cpd	Molecule	Mtb hypoxia rep	Mtb hypoxia rep growth	RN4220 kill	Autofluor counter
1	CS/C(N)=N/N=C/c1ccc2c(c1)OCO2	.	.	.	5798
2	CCC(Oc1cc(Cl)ccc1Cl)C(=O)NNC(=O)CCC(=O)O (configuration not stated)	10.3	-1.6	-1.3	2944
3	C#CCOCCOCCOCCNc1nc(N2CCN(C(=O)[C@H](CCC(=O)O)n3cc(C(N)[C@H](C)CC)nn3)CC2)nc(N2CCN(C(=O)[C@H](CCC(=O)O)n3cc(C(N)[C@H](C)CC)nn3)CC2)n1 (some centres not stated)	.	.	.	3889
4	CC(C)(C)n1ncc2c(=O)n(CC(=O)N3CCCCC3)cnc21	9.4	2.4	2.2	3988
5	CC(C)(C)OC(=O)N1CCC(CC2CC(c3ccc(Cl)cc3)=NO2)(C(=O)NCC2CCCCC2)CC1 (configuration not stated)	-6.3	6.8	-5.2	3269
6	NC(=O)COc1ncnc2scc(-c3ccc(F)cc3)c12	-1.2	13.6	-3.2	4430
7	FC(F)(F)c1ccc2c(c1)[nH]c(=S)n2C1CC1	-3.9	-2.4	-0.9	4396
8	O=C(O)CC1(CC(=O)NCc2ccncc2)CCCCC1	7.7	14.4	3.5	3399
9	CCCN(C1CCS(=O)(=O)C1)S(=O)(=O)c1ccc2ccccc2c1 (configuration not stated)	-7.6	4.4	-5.0	3623
10	CCC1(c2ccc(F)cc2)NC(=O)N(CC(=O)Nc2ccc(C(N)=O)cc2)C1=O (configuration not stated)	3.2	-4.3	-1.2	3127
11	COc1ccccc1N1CCN(C(=O)c2cccc(S(=O)(=O)Nc3ccccc3F)c2)CC1	0.6	0.2	10.4	3757
12	Cc1ccc(S(=O)(=O)N(C)C)cc1NC(=O)COC(=O)/C=C/c1ccc(F)cc1	-2.1	-8.9	4.6	.

cpd	Sa ugtP lethal	BJeLR viability	PrP UTR inh
1	.	-12.2	-70.1
2	6.5	-7.3	-10.2
3	.	2.6	-4.4
4	6.2	-0.7	-0.5
5	-1.6	-4.9	-25.2
6	-1.2	6.2	9.6
7	-1.5	-13.0	-32.9
8	0.8	-1.7	-43.1
9	-4.9	.	-12.8
10	-2.2	-1.9	-12.9
11	-2.2	.	-8.4
12	2.9	0.8	-6.0

Following part
cpd	Molecule	Mtb hypoxia rep	Mtb hypoxia rep growth	RN4220 kill	Autofluor counter
13	O=C(Nc1ccon1)c1cc(-c2ccccc2)nc2ccccc12	.	.	-0.9	4295
14	CCC(C)(C)n1nnnc1C(c1cc2cc(OC)ccc2[nH]c1=O)N1CCc2ccccc21 (configuration not stated)	-9.0	4.3	33.9	16186*
15	CCCSc1nnc(NC(=O)c2ccco2)s1	7.8	10.3	1.5	4518
16	Cc1cccc(C(=O)Oc2cc(C)[nH]c(=O)c2[N+](=O)[O-])c1	-5.0	-6.0	5.9	5504
17	CCc1ccc(OC(C)C(=O)N(Cc2ccccc2)C2CCS(=O)(=O)C2)cc1 (configuration not stated)	-9.5	-1.3	1.9	3847
18	CN(Cc1cccnc1)C(=O)CCCc1c[nH]c2ccccc12	-13.0	-4.8	1.8	5145
19	O=C(Oc1ccc(N(C(=O)c2ccncc2)S(=O)(=O)c2ccc(Cl)cc2)cc1)c1ccncc1	7.5	5.9	1.3	4655
20	CC1(c2cc(F)ccc2F)NC(=O)N(CC(=O)Nc2cccc(S(=O)(=O)N3CCCC3)c2)C1=O (configuration not stated)	9.7	10.0	-0.7	5810
21	CCOc1ccc(OCc2ccc(C(=O)NC(C)(C)C)o2)cc1	13.0	4.7	2.1	?
22	Cc1cc(C)c(OCC(=O)NCCCn2nc(C)cc2C)c(C)c1	-0.5	2.5	3.8	3694
23	C=CCN1C(=O)C(Cc2ccc(Br)cc2)S/C1=N\N=C\c1ccco1 (configuration not stated)	.	.	.	6816
24	COc1ccccc1OCCNC(=O)c1ccccc1OCc1c(C)noc1C	6.5	9.8	4.2	.

cpd	Sa ugtP lethal	BJeLR viability	PrP UTR inh
13	-4.8	5.2	-3.4
14	-1.0	-5.5	4.0
15	-3.2	.	-29.9
16	0.8	5.8	-30.0
17	3.2	1.1	-7.8
18	8.4	-6.3	-26.3
19	9.0	12.3	-47.4
20	1.5	.	.
21	5.9	-0.8	-20.2
22	-4.8	.	-25.5
23	.	-0.6	-6.4
24	1.4	.	-0.6

(continued)
cpd	Molecule	Mtb hypoxia rep	Mtb hypoxia rep growth	RN4220 kill	Autofluor counter
25	Nc1nc(-c2ccc(Cl)cc2)nc(-c2ccc(Cl)cc2)n1	-16.4	10.3	-2.5	4781
26	CC(C)c1cc(C(=O)N2CCCC(N3CCN(c4ccccc4F)CC3)C2)nc(N)n1 (configuration not stated)	0.4	0.1	4.6	6140
27	CCOCCn1c(SCC)nc2c1c(=O)[nH]c(=O)n2C	.	.	0.4	4384
28	O=C(Nc1ccc(NC(=O)c2cccs2)cc1)c1cccnc1	-2.3	-1.5	3.5	3948
29	O=C(Cc1ccccc1)NN=Cc1ccccc1Cl	4.2	7.3	8.9	.
30	COc1ccc(S(=O)(=O)NC(C)C(=O)Nc2ccccc2F)cc1 (configuration not stated)	10.5	4.6	2.0	9155
31	Cc1ccc(S(=O)(=O)c2cccc(S(=O)(=O)N3CCCC3)c2)cc1S(=O)(=O)N1CCCC1	8.2	8.1	5.0	15862
32	Oc1oc(-c2ccccc2)nc1C=NCc1ccccc1	18.4	4.1	7.3	7812
33	Cc1ccc(C(=O)c2cnc3cc4c(cc3c2S(=O)(=O)c2ccccc2)OCCO4)cc1	2.6	1.3	-3.3	2221
34	O=C1CC(SCc2nc3ccccc3[nH]2)C(=O)N1c1cccc(Cl)c1 (configuration not stated)	17.2	5.6	5.6	9413
35	Cc1ccc(S(=O)(=O)N(CC(=O)Nc2cccc([N+](=O)[O-])c2)C2CCCCC2)cc1	.	.	-4.6	4173
36	Cc1ccccc1NC(=O)CSc1ccc(-c2cccnc2)nn1	6.8	6.8	1.7	5782

cpd	Sa ugtP lethal	BJeLR viability	PrP UTR inh
25	-9.7	-2.3	-6.2
26	3.0	-2.7	-0.8
27	4.4	-1.1	-11.0
28	4.6	4.4	-21.2
29	-5.4	.	.
30	-2.7	-5.0	-16.0
31	5.4	-2.3	2.5
32	9.4	6.5	-59.9
33	18.8	1.2	-29.7
34	6.1	0.2	-18.1
35	-6.8	-6.8	-6.6
36	3.1	-9.0	-16.2

(list continues)
cpd	Molecule	Mtb hypoxia rep	Mtb hypoxia rep growth	RN4220 kill	Autofluor counter
37	O=C(Cc1ccccc1)Nc1nc2ccccc2[nH]1	8.1	3.6	3.3	12593
38	O=C(/C=C/c1ccccc1)Nc1ccc(Br)cn1	9.0	-4.4	5.6	4591
39	N#Cc1c(NC(=O)CCCN2C(=O)c3ccccc3C2=O)oc(-c2ccccc2)c1-c1ccccc1	4.8	4.5	-5.8	2399
40	Oc1ccccc1N1CCN(C(=S)NCc2ccccc2)CC1	.	.	.	3939
41	CC1CCCCC1NC(=O)CN1C(=O)NC(C)(c2ccc(OC(F)F)cc2)C1=O (configuration not stated)	-7.2	4.3	1.3	10290
42	O=C(COC(=O)c1ccccc1-c1ccccc1[N+](=O)[O-])c1ccccc1	16.1	3.8	-8.7	3409
43	COc1cc2[nH]c(=S)nc(NCCc3ccc(S(N)(=O)=O)cc3)c2cc1OC	2.6	5.9	6.0	4468
44	CC(=O)Nc1cccc([As](=O)(c2cccc(NC(C)=O)c2)c2cccc(NC(C)=O)c2)c1	-7.7	-15.9	10.3	3541
45	O=C(N/N=C/c1ccc(OC(F)F)cc1)c1ccc(CSc2nc3ccccc3[nH]2)cc1	.	.	.	2636
46	COc1cccc(/C=N/n2c(N)c(S(=O)(=O)c3cccs3)c3nc4ccccc4nc32)c1	.	.	.	?
47	Cc1nn(-c2ccc(Cl)cc2Cl)c(C)c1C(=O)O	2.7	3.2	3.8	4274
48	CCOC(=O)c1c(NC(=O)CN2C(=O)CN(C)C2=O)sc(C)c1C	-0.1	1.0	-0.7	4290

cpd	Sa ugtP lethal	BJeLR viability	PrP UTR inh
37	-7.1	0.5	-21.8
38	3.8	9.0	-59.1
39	10.1	4.0	-3.1
40	.	7.3	-14.6
41	0.0	-3.4	-22.0
42	9.4	4.3	-18.4
43	-2.0	1.0	-36.1
44	-7.2	-1.7	-17.2
45	.	6.0	-21.4
46	.	9.0	-4.4
47	9.8	0.9	-9.0
48	-0.5	-6.2	-2.3

Later entries:
cpd	Molecule	Mtb hypoxia rep	Mtb hypoxia rep growth	RN4220 kill	Autofluor counter
49	CS(=O)(=O)Nc1ccc(N2CCN(c3ccc(C(F)(F)F)cn3)CC2)nc1	6.2	12.9	1.9	3632
50	CC(Cl)C(=O)N1c2ccccc2CCc2ccccc21 (configuration not stated)	7.8	6.5	8.2	3724
51	CCCOc1ccc(C(=O)C(CN2CCOCC2)c2ccccc2)cc1 (configuration not stated)	.	.	1.9	3174
52	COCCCN=CC1=C(O)CC(C)(C)CC1=O	5.0	2.3	-0.5	23898*
53	COC(=O)C1N[C@@H]([C@@H](NC(=O)COc2ccccc2)C(=O)NC2CC2)SC1(C)C (some centres not stated)	.	.	.	4546
54	Cc1ccc(S(=O)(=O)NC(CC(N)=O)C(=O)O)cc1 (configuration not stated)	.	.	1.0	3988
55	CCOc1ccccc1NC(=O)C1C2C=CC(O2)C1C(=O)O (configuration not stated)	-8.1	-3.7	16.2	2910
56	O=C(CCC(=O)c1cccs1)NCc1cccc(Cl)c1	2.4	3.4	0.7	5784
57	COc1ccccc1C1(CCNC(C)c2cccs2)CCOC(C(C)C)C1 (configuration not stated)	-4.5	-9.9	2.6	.
58	CCOc1cc(/C=N/NC(=O)c2nnn(-c3nonc3N)c2C)ccc1OCc1cccc(F)c1	.	.	.	5824
59	C=CCn1c(SCc2ccc(Cl)cc2)nc2cc(C(=O)N3CCC(C(N)=O)CC3)ccc2c1=O	-0.4	1.5	5.4	2005
60	O=C(COC(=O)Cn1cnc2ccccc2c1=O)NCc1ccccc1	7.1	1.0	1.7	6060

cpd	Sa ugtP lethal	BJeLR viability	PrP UTR inh
49	1.2	-9.2	-34.6
50	8.0	-6.4	-14.9
51	36.5	2.6	-23.9
52	4.3	-14.0	-37.9
53	.	7.6	-10.4
54	0.7	0.0	-100.2
55	12.7	8.1	-21.3
56	5.8	9.6	-15.1
57	-4.9	-7.4	.
58	.	-3.2	3.5
59	2.0	14.9	-12.7
60	10.3	.	-18.6

Further compounds follow.
cpd	Molecule	Mtb hypoxia rep	Mtb hypoxia rep growth	RN4220 kill	Autofluor counter
61	CCOC(=O)c1c(CC(C)C)csc1NC(C)=O	.	.	10.6	2416
62	CCC(=O)Nc1sc(C(=O)Nc2ccccc2F)c(C)c1C(=O)OC	17.7	16.1	5.3	2447
63	COCc1cc(C)nc(SCC(=O)Nc2nc(C)cs2)c1C#N	4.8	21.1	6.4	4263
64	CC(C)(C)OC(=O)N[C@@H](Cc1ccccc1)C(=O)N[C@@H](CO)[C@H](O)[C@@H]1C[C@@H]1C(=O)N1CCCC1	.	.	.	3459
65	Cc1ccc(N(C(=O)Cn2nnc3ccccc32)C(C(=O)NCc2ccco2)c2ccc(C)o2)cc1 (configuration not stated)	.	.	-4.2	4109
66	O=C(NCc1cccnc1)C(=O)NCC1OCCN1S(=O)(=O)c1ccc(F)cc1 (configuration not stated)	-3.8	1.4	19.5	6374

cpd	Sa ugtP lethal	BJeLR viability	PrP UTR inh
61	7.2	-6.4	-21.0
62	10.4	3.6	-46.0
63	-0.6	-7.9	8.3
64	.	-15.1	-11.1
65	2.4	-1.7	-16.1
66	19.0	4.6	-13.4

Part of the list above with just BJeLR viability and Mtb hypoxia rep growth:
| no. | Molecule | BJeLR viability | Mtb hypoxia rep growth |
| --- | --- | --- | --- |
| 51 | CCCOc1ccc(C(=O)C(CN2CCOCC2)c2ccccc2)cc1 (configuration not stated) | 2.6 | . |
| 52 | COCCCN=CC1=C(O)CC(C)(C)CC1=O | -14.0 | 2.3 |

Screening results (PubChem BioAssay)
